INS promoter inh = TRM-6 insulin promoter activity inhibition | TRM-6 cells (human fetal islet line), insulin promoter-eGFP reporter, imaging; reporter expression induced with tamoxifen | inhibition, % at 2 µM | hit rate 0.9% among 130,000;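 active = inhibition above the mean plus 3 SD, with well images judged a real hit on visual review, cut at about 60% in these data, passing the limit was not always enough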
PKD1 inh = inhibitors of human PKD1 kinase; hit rate 0.056% among 200,000; inhibition, %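 (about 10 µM by stock and volumes)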; Q15139; PKD1 kinase fluorescence polarization assay;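 active = inhibition of 50% or more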;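 also: controls were vehicle for no effect and a reference inhibitor for full effect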
GALR2 ag = activates the human galanin receptor 2; GALR2-expressing cells, agonist activation read-out; O43603; hit rate 0.48% among 140,000; activation, %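 (tested at 5 µM)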;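 active = above mean plus 3 SD of all compounds, about 5% in these data, not always enough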;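 also: 0% = vehicle buffer wells and 100% = reference agonist at full effect; tested in CHO reporter cells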
Target sequence (O43603 whole entry, looked up): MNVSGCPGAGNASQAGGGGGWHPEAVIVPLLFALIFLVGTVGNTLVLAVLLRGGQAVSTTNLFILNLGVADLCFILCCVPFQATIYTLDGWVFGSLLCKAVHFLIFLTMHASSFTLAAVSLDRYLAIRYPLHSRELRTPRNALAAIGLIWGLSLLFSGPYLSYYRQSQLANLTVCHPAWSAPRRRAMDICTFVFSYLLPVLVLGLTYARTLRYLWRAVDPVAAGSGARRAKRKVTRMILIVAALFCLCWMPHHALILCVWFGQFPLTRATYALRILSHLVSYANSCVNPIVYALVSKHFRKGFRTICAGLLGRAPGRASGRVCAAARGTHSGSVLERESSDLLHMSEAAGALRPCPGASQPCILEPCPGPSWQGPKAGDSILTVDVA
HSV augment = HSV replication enhancement. maximum fold increase. HSV replication augmentation in cells, fold increase. hit rate 0.005% among 220,000;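 active = peak rise of 1.5-fold or more in the series; tested in PC3 cells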;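 also: first round at 10 µM; read as green reporter fluorescence; hits show the peak of a series up to 25 µM; 1 = signal of infected wells without compound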
RGS16-Gao = RGS16-Galphao interaction regulator (human); O15492+P09471; bead-based flow cytometry RGS16-Galphao binding, fluorescence; actives lie on both sides; binding response (% of control), % at 10 µM; hit rate 0.38% among 220,000; AID 1441;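 active = below 25% or above 175%, edge rows of some plates excepted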;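 also: Galphao activated by GDP with aluminum fluoride before binding; 100% = wells without compound and 0% = beads without RGS; some results beyond the cut were filed as inactive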
Target sequence (O15492 whole entry, looked up): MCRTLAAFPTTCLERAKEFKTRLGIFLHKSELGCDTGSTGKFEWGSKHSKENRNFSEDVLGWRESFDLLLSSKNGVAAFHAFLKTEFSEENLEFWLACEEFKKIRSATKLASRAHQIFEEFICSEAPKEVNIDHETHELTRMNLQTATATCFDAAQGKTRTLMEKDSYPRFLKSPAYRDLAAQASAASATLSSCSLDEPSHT
Target sequence (P09471 whole entry, looked up): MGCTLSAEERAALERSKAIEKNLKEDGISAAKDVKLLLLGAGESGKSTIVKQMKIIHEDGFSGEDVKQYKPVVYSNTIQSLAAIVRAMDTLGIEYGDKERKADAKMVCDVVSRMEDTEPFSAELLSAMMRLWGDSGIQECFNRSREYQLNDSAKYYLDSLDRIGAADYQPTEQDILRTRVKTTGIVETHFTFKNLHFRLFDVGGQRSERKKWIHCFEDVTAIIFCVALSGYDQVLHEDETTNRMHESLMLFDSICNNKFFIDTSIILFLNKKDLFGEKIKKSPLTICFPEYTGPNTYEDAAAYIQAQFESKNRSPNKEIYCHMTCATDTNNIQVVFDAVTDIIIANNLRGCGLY
INS promoter inh cell count = recorded beside INS promoter inh, whose call it bears; normalized cell count, %; measured here: cell count, toxicity; reference of the scale not given here;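 cells exposed to compound for 48 h; stained nuclei by imaging scaled within each plate; lower means fewer cells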
HSV augment primary fold = recorded beside HSV augment, whose call it bears; fold increase; compound at 10 µM; measured here: primary screen fold increase 10 uM; tested in PC3 cells;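 GFP signal in the first replicate; 1 = infected wells without compound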
The depositor's hits bear a star; i = inactive; nt = not tested or not shown.

Every second line gives: INS promoter inh, INS promoter inh cell count, PKD1 inh, GALR2 ag, HSV augment, HSV augment primary fold, RGS16-Gao
[1] O=C(NNc1cc(N2CCOCC2)nc(N2CCOCC2)n1)C12CC3CC(CC(C3)C1)C2
    -15.4, 86.5, -10.5, -0.3, i, 0.87, 115.9
[2] Cn1c(=O)c2c(nc(Br)n2CCSc2nnnn2-c2ccccc2)n(C)c1=O
    -11.7, 71.1, -0.1, 0.2, i, 0.84, 102.5
[3] O=C(Nc1cccc2ccccc12)c1ccc(Br)o1
    10.0, 132.5, -3.1, -0.3, nt, nt, 103.9
[4] Cc1[nH]c(=O)[nH]c(=O)c1/C=N/NC(=O)[C@@H](N)CC(C)C
    nt, nt, nt, nt, i, 0.64, 96.6
[5] CCOc1ccc(OCC)c(NC(=O)C2CCN(S(=O)(=O)c3c(C)[nH]c(=O)[nH]c3=O)CC2)c1
    25.9, 88.5, 0.8, nt, i, 0.98, 100.8
[6] COC(=O)NNC(=O)C1CCC(C(=O)NNC(=O)OC)CC1 (configuration not stated)
    46.9, 108.0, 1.5, -0.7, i, 1.07, 100.0
[7] CCCCOc1ccc(C(=O)CCN2CCOCC2)cc1
    8.3, 48.3, -1.1, nt, i, 0.83, 90.6
[8] Cc1cc(NC(=O)COC(=O)c2ccccc2[N+](=O)[O-])no1
    nt, nt, -3.9, nt, i, 0.99, 102.6
[9] COc1ccc(CNC(=O)CN(C(=O)c2ccc(CN3CCOCC3)o2)C2CCCC2)cc1
    -40.3, 113.4, -5.0, -0.8, i, 0.82, 105.0
[10] CC1=C(C(=O)OCC2CCCO2)C(c2coc3ccc(C)cc3c2=O)C2=C(CCCC2=O)N1 (configuration not stated)
    25.0, 197.1, -3.7, nt, i, 0.91, 104.3
[11] Cc1ccc(Cn2c(=O)c3ccccc3n3c(CCC(=O)O)nnc23)cc1
    nt, nt, -6.4, -1.9, i, 0.81, nt
[12] COc1ccc(NC(=O)CCN2C(=O)/C(=C/c3ccc4c(c3)OCO4)SC2=S)cc1
    nt, nt, nt, nt, i, 1.03, 95.1
[13] O=C(O)CCCc1nc2ccccc2s1
    -200.0, 73.3, -1.9, -2.2, i, 0.91, 102.6
[14] CCN(CC)c1ccc2cc(-c3nc4ccccc4n3C)c(=O)oc2c1
    -138.5, 37.7, 16.2, 10.1, nt, nt, 106.6
[15] CC(=O)N1CCc2cc(S(=O)(=O)NC(C(=O)Nc3nc(C)cs3)C(C)C)ccc21 (configuration not stated)
    nt, nt, 0.2, -0.6, i, 0.89, 97.6
[16] O=[N+]([O-])c1cc(CN(CCO)CCO)ccc1O
    nt, nt, nt, nt, i, 1.02, 99.8
[17] COC(=O)c1ccc(CSC(=N)N)o1
    nt, nt, -1.6, nt, i, 1.08, 103.6
[18] O=C(CCSc1nc(-c2ccco2)cc(C(F)(F)F)n1)NCCc1ccccc1
    -29.7, 173.2, -6.9, -0.6, i, 0.983, 107.0
[19] O=C(COc1ccccc1Cl)N1CCN(c2ccc([N+](=O)[O-])c(N3CCCCC3)c2)CC1
    -29.2, 104.5, -3.2, -1.2, i, 0.89, 100.4
[20] O=C(Oc1ccc(N(C(=O)c2ccncc2)S(=O)(=O)c2ccc(F)cc2)cc1)c1ccncc1
    nt, nt, 1.1, nt, i, 0.99, 94.8
[21] CCN(/N=C/c1ccccc1)c1cc(=O)n(C)c(=O)[nH]1
    nt, nt, 2.2, -0.3, i, 0.99, 103.6
[22] Cc1cc(N(C(=O)c2ccco2)C(C(=O)NC2CCCCC2)c2ccccc2)ccc1-n1cnnn1 (configuration not stated)
    16.7, 102.5, -4.0, -0.1, i, 0.97, 97.7
[23] Cc1ccc(S(=O)(=O)N2CCN(C(=O)c3cc(=O)c4ccccc4o3)CC2)cc1
    0.0, 165.8, -1.6, nt, i, 0.89, 108.6
[24] CCOC(=O)c1cc(C)nc(S(C)(=O)=O)c1C#N
    nt, nt, nt, nt, i, 0.98, 100.4
[25] COC(C(=O)NC1CC1)c1ccccc1 (configuration not stated)
    16.7, 136.1, -6.9, -1.5, nt, nt, 55.2
[26] COc1ccc(CCn2c(N)cc(=O)[nH]c2=O)cc1OC
    nt, nt, -6.2, nt, i, 0.98, 100.4
[27] CCc1ccccc1NC(=O)CSc1nnc([C@H](CCSC)NC(=O)OC(C)(C)C)o1
    i, 93.7, 0.0, -1.4, i, 0.52, 101.4
[28] c1ccc(-c2[nH]ncc2CN2CCc3ccccc3C2)cc1
    nt, nt, nt, nt, i, 0.96, 94.1
[29] O=C(O)CC(c1ccccc1)n1cnnn1 (configuration not stated)
    7.1, 85.4, -13.7, -2.7, i, 0.96, 118.1
[30] Cc1ccsc1/C=N/NC(=O)c1cccs1
    nt, nt, 5.1, -0.1, i, 0.95, 100.7
[31] CCCn1cnc2c(sc3nc4c(cc32)CSC(C)(C)C4)c1=O
    nt, nt, -7.4, -1.3, i, 0.83, 101.5
[32] Cc1cccc(Nc2sc(C(=O)c3cc4cc(Cl)ccc4o3)c(N)c2C#N)c1
    nt, nt, nt, nt, i, 1.03, 110.2
[33] O=C(CSc1nnc2c(n1)[nH]c1ccccc12)NCc1ccco1
    nt, nt, -5.5, nt, i, 0.96, 102.6
[34] N#C/C(=C\c1cccs1)Sc1nc2ccccc2s1
    -223.8, 63.8, -3.6, -2.6, i, 0.97, 101.3
[35] CCOC(=O)c1ccc(NC(=O)Cn2ccc([N+](=O)[O-])n2)cc1
    nt, nt, -5.3, nt, i, 0.87, 97.0
[36] Cc1ccc(N2CCN(C(=O)c3cc(C(=O)c4ccccc4C)c[nH]3)CC2)c(C)c1
    -42.9, 78.4, -7.5, nt, i, 0.96, 98.2
[37] O=C(CSc1nccc(=O)[nH]1)Nc1ccc2c(c1)OCCO2
    nt, nt, 3.6, nt, i, 0.98, 94.3
[38] CC1CC(C)CN(S(=O)(=O)c2ccc(C(=O)N3CCN(c4ccccc4)CC3)cc2)C1 (configuration not stated)
    35.7, 73.7, 22.0, -0.2, i, 0.88, 92.5
[39] O=C(NO)c1cc(OCC(F)(F)F)ccc1OCC(F)(F)F
    21.9, 96.9, -3.3, -3.3, i, 0.84, 103.8
[40] Cn1c(SCC(=O)NC(=O)c2cccc([N+](=O)[O-])c2)nnc1-c1ccc(F)cc1
    0.0, 41.1, -2.1, -0.4, i, 1.01, 35.8

5 entries picked at random from the list so far, as already listed:
Every second line gives: INS promoter inh, INS promoter inh cell count, PKD1 inh, GALR2 ag, HSV augment, HSV augment primary fold, RGS16-Gao
[10] CC1=C(C(=O)OCC2CCCO2)C(c2coc3ccc(C)cc3c2=O)C2=C(CCCC2=O)N1 (configuration not stated)
    25.0, 197.1, -3.7, nt, i, 0.91, 104.3
[13] O=C(O)CCCc1nc2ccccc2s1
    -200.0, 73.3, -1.9, -2.2, i, 0.91, 102.6
[27] CCc1ccccc1NC(=O)CSc1nnc([C@H](CCSC)NC(=O)OC(C)(C)C)o1
    i, 93.7, 0.0, -1.4, i, 0.52, 101.4
[18] O=C(CCSc1nc(-c2ccco2)cc(C(F)(F)F)n1)NCCc1ccccc1
    -29.7, 173.2, -6.9, -0.6, i, 0.983, 107.0
[8] Cc1cc(NC(=O)COC(=O)c2ccccc2[N+](=O)[O-])no1
    nt, nt, -3.9, nt, i, 0.99, 102.6

(more compounds)
Key to letters: A = INS promoter inh; B = INS promoter inh cell count; C = PKD1 inh; D = GALR2 ag; E = HSV augment; F = HSV augment primary fold; G = RGS16-Gao
41) CCc1nc(N2CCN(C(=O)c3ccco3)CC2)c2oc3ccccc3c2n1
  A: nt	B: nt	C: 4.5	D: 0.3	E: i	F: 0.83	G: 95.3

42) COc1ccc(S(=O)(=O)N2CCCCC2C(=O)O)cc1OC (configuration not stated)
  A: nt	B: nt	C: -16.0	D: -3.9	E: i	F: 1.05	G: 98.9

43) Cc1cc(/C=C2\SC(N)=NC2=O)c(C)n1-c1ccc(F)cc1
  A: nt	B: nt	C: 2.2	D: nt	E: i	F: 1.06	G: 108.8

44) O=C(O)C(NC(=O)c1ccccc1)=C(Cl)Cl
  A: -18.2	B: 104.2	C: 14.8	D: -1.6	E: i	F: 1.08	G: nt

45) COc1ccccc1NC(=O)CCC(=O)OCc1ccc(Cl)cc1
  A: 0.0	B: 119.0	C: -1.9	D: nt	E: i	F: 0.93	G: 97.4

46) CCNC(=S)NC1CC2CCC(C1)N2Cc1ccccc1 (configuration not stated)
  A: 30.0	B: 72.4	C: -9.7	D: -1.6	E: i	F: 0.82	G: 90.8

47) COc1cc(OC)nc(N/N=C(\c2ccccc2)c2ccncc2)n1
  A: -23.1	B: 125.2	C: -4.4	D: 0.2	E: i	F: 0.92	G: 100.1

48) CCN(CC)C(=O)CN1C(=O)C2(OCC(C)(c3ccccc3)CO2)c2ccccc21 (configuration not stated)
  A: 58.8	B: 125.9	C: -9.7	D: -1.9	E: i	F: 0.99	G: 97.1

49) O=C(COC(=O)C1(c2ccc(F)cc2)CCCC1)NCc1ccco1
  A: nt	B: nt	C: -4.0	D: nt	E: i	F: 0.89	G: 98.0

50) Cc1c(CN2CCc3c([nH]c4ccccc34)C2C2CCCCC2)cnn1C (configuration not stated)
  A: nt	B: nt	C: -7.2	D: nt	E: i	F: 1.02	G: 109.1

51) CN(Cc1nc(Cc2ccccc2F)no1)Cc1cccc2ncccc12
  A: nt	B: nt	C: -3.1	D: nt	E: i	F: 0.83	G: 105.4

52) COc1ccc(OC)c(S(=O)(=O)Nc2ccccc2C)c1
  A: -20.0	B: 109.5	C: 3.1	D: -0.3	E: i	F: 1.05	G: 101.4

53) CCCCN(C(=O)Cn1nnc2ccccc21)C(C(=O)NCCOC)c1ccccc1 (configuration not stated)
  A: -218.9	B: 92.9	C: 4.5	D: -1.6	E: i	F: 0.83	G: 104.1

54) Cc1cc(Cl)ccc1N=c1ssnc1Cl
  A: 21.9	B: 154.7	C: 4.0	D: -4.2	E: i	F: 0.677	G: 18.9*

55) Cc1ccc(C(=O)N/C(=C\c2ccc(C(C)C)cc2)C(=O)NCCCN2CCOCC2)cc1
  A: -31.0	B: 79.0	C: 4.7	D: -1.8	E: i	F: 0.98	G: 114.6

Ordered by length of the SMILES (rising): some entries from above.
Key to letters: A = INS promoter inh; B = INS promoter inh cell count; C = PKD1 inh; D = GALR2 ag; E = HSV augment; F = HSV augment primary fold; G = RGS16-Gao
54) Cc1cc(Cl)ccc1N=c1ssnc1Cl
  A: 21.9	B: 154.7	C: 4.0	D: -4.2	E: i	F: 0.677	G: 18.9*

52) COc1ccc(OC)c(S(=O)(=O)Nc2ccccc2C)c1
  A: -20.0	B: 109.5	C: 3.1	D: -0.3	E: i	F: 1.05	G: 101.4

51) CN(Cc1nc(Cc2ccccc2F)no1)Cc1cccc2ncccc12
  A: nt	B: nt	C: -3.1	D: nt	E: i	F: 0.83	G: 105.4

47) COc1cc(OC)nc(N/N=C(\c2ccccc2)c2ccncc2)n1
  A: -23.1	B: 125.2	C: -4.4	D: 0.2	E: i	F: 0.92	G: 100.1

Other entries follow:
Key to letters: A = INS promoter inh; B = INS promoter inh cell count; C = PKD1 inh; D = GALR2 ag; E = HSV augment; F = HSV augment primary fold; G = RGS16-Gao
56) c1ccc(-c2noc(CSc3nnnn3C3CCCCC3)n2)cc1
  A: nt	B: nt	C: 9.5	D: -0.7	E: i	F: 0.88	G: 96.0

57) Cc1ccc(S(=O)(=O)NCCC(=O)Oc2ccc3ccc(=O)oc3c2)cc1
  A: nt	B: nt	C: nt	D: nt	E: i	F: 0.97	G: 94.0

58) CN(C)c1cccc(C(=O)OC(C(=O)Nc2ccc([N+](=O)[O-])cc2Br)c2ccccc2)c1 (configuration not stated)
  A: nt	B: nt	C: 1.5	D: 0.8	E: i	F: 1.11	G: 103.9

59) CCn1c(=N)n(CC(=O)c2cccc([N+](=O)[O-])c2)c2ccccc21
  A: -7.7	B: 80.1	C: -0.7	D: -2.6	E: i	F: 1.03	G: 101.6

60) Cc1cccc(NC(=O)CN(C)S(=O)(=O)c2ccccc2)n1
  A: 13.3	B: 94.6	C: -15.5	D: -0.8	E: i	F: 0.98	G: 103.9

61) CCOc1c2ccc(C(=O)NCc3cc(C(F)(F)F)cc(C(F)(F)F)c3)cc2nn1C
  A: nt	B: nt	C: 1.1	D: -2.4	E: i	F: 1.19	G: 93.2

62) Nc1nc(-c2ccc(Br)s2)c(Br)s1
  A: 48.1	B: 58.4	C: -9.7	D: 1.8	E: i	F: 0.92	G: 102.1

63) Cc1csc(C2=C(O)CN(CCc3ccccc3)C2=N)n1
  A: 7.1	B: 158.7	C: 4.8	D: -0.1	E: i	F: 0.96	G: 100.7

64) Cc1ccc(C(=O)Oc2ccc3c(c2)ncn3C)cc1
  A: 37.9	B: 87.1	C: -12.9	D: -1.4	E: i	F: 1.05	G: 102.2

This is a random part of the collection; 1.3% or so of the library scored in one or more.
